Mtb growth – Mycobacterium tuberculosis H37Rv growth inhibition, cell based, confirmatory dose response (AID 1949); most inactive calls were filed without a number and no value below 0 was filed; one-dose inhibition, % at 10 µg/mL; IC50 in µg/mL for titrated hits; 100,000 tested, 1.6% active;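 active = confirmed in a dose series; inconclusive = about 50% or more but not retested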;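 note: bacteria grown 7 days with compound before Alamar blue readout; 0% = untreated bacteria and 100% = reference antibiotic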
Numbers without * were called inactive; i = inactive; ? = inconclusive. Not all compounds are listed; rates above refer to the full screens.

Preview:
canonical_smiles,Mtb growth
O=C(Nc1ccc(OCC(F)(F)C(F)F)c(C(F)(F)F)c1)c1ccccc1O,5.3µg/mL*
Cc1ccc(S(=O)(=O)N2Cc3ccccc3CC2C(=O)NC2CCCCC2)cc1 (stereo not drawn),i
CC1(C)CC(=O)C2=C(C1)N(CCCN1CCOCC1)C(=O)C2(NC(=O)c1ccccc1)C(F)(F)F (stereo not drawn),i
Ic1ccc(OCCCCN2CCNCC2)cc1,i
CCOc1ccccc1NC(=O)c1ccc(N(Cc2ccc(C)cc2)S(C)(=O)=O)cc1,i
Cc1nnc(C)c2c(C)n(-c3ccc(Br)cc3)c(C)c12,i

The whole of this part, previewed entries included:
canonical_smiles,Mtb growth
O=C(Nc1ccc(OCC(F)(F)C(F)F)c(C(F)(F)F)c1)c1ccccc1O,5.3µg/mL*
Cc1ccc(S(=O)(=O)N2Cc3ccccc3CC2C(=O)NC2CCCCC2)cc1 (stereo not drawn),i
CC1(C)CC(=O)C2=C(C1)N(CCCN1CCOCC1)C(=O)C2(NC(=O)c1ccccc1)C(F)(F)F (stereo not drawn),i
Ic1ccc(OCCCCN2CCNCC2)cc1,i
CCOc1ccccc1NC(=O)c1ccc(N(Cc2ccc(C)cc2)S(C)(=O)=O)cc1,i
Cc1nnc(C)c2c(C)n(-c3ccc(Br)cc3)c(C)c12,i
N#Cc1ccc(CSc2nnc(COc3ccccc3)n2Cc2ccco2)cc1,i
CN(C)S(=O)(=O)c1cccc(-c2cn3cc(Cl)ccc3n2)c1,1%
Cc1ccc(OCC(=O)O/N=C(\N)c2ccc(Br)cc2)cc1C,i
O=C(Oc1ccc(F)cc1)c1ccccc1,4%
CCCCNS(=O)(=O)c1cc(OC)ccc1OC,i
Cc1cc(NC(=O)C(=O)NCCCn2ccnc2)ccc1Br,i
Clc1ccccc1-c1nnc2sc(CCc3ccccc3)nn12,?
COC(=O)c1c(NC(=S)Nc2ccccc2SC)sc(C)c1-c1ccccc1,i
O=C(Nc1ccc(Cl)c(Cl)c1)Nc1cnn(Cc2ccc(Br)cc2)c1,5%
O=C(Nc1ccc(I)cc1C(=O)NCc1ccc(Cl)cc1)c1cccnc1,i
Cn1nc([N+](=O)[O-])nc1Sc1nnnn1C1CCCCC1,i
COc1ccccc1-c1nc(S(=O)(=O)c2ccccc2)c(N2CCCCCC2)o1,i
O=C(O)c1ccc(NC(=O)c2cccc(NC(=O)c3cccs3)c2)cc1,i
CC1=[N+]([O-])C(C)(C)C(c2cccs2)=[N+]1[O-],i
CC1CCCC(C(=O)O)N1C(=O)CCS (stereo not drawn),1%
CCOC(=O)C(C)Oc1cc2oc(=O)c3c(c2cc1Cl)CCCC3 (stereo not drawn),?
COc1ccc(NC(=O)CN2CCCC2)cc1,i
CCN(CC)CCSc1nc(O)c(CCC(C)C)c(=O)[nH]1,i
COc1ccccc1OCCNC(=O)CN(c1cccc(C)c1)S(=O)(=O)c1ccccc1,i
Oc1ccc(C(O)C(Cl)(Cl)Cl)cc1 (stereo not drawn),i
CCC(Sc1nc2ccccc2c(=O)n1C1CCCC1)C(=O)NCc1cccnc1 (stereo not drawn),i
Cc1ccnc(SCC(=O)Nc2oc(-c3ccccc3)c(-c3ccccc3)c2C#N)n1,i
Cc1ccc(S(=O)(=O)N(CC(=O)Nc2ccc(Cl)cc2C)c2cccc(Cl)c2)cc1,i
COc1ccc(Cl)cc1C(=O)Nc1cccc(NC(=O)c2cccs2)c1,37%
CC1CCN(C2CCN(S(=O)(=O)c3ccc4ccccc4c3)CC2)CC1,i
COc1ccc(Cc2nnc(SCC(=O)NC3CCCCC3)n2C)cc1,i
CCC(=O)Nc1ccc(C(=O)Nc2cccc(C(=O)NC(C)(C)C)c2)cc1,i
CCOC(=O)C1=C(C)NC2=C(C(=O)C(C(=O)OC)C(C)C2)C1c1cccs1 (stereo not drawn),1%
Cc1cc(C)c2c(=O)cc(C(F)(F)C(F)F)oc2n1,i
COC(=O)c1c(NC(=O)COc2ccc3c(C)c(C)c(=O)oc3c2C)sc2c1CCCC2,i
CCC(CC)C(=O)Nc1sc(C(=O)OC)c(C)c1C(=O)OC,i
COc1ccc(S(=O)(=O)N(CC(=O)NC2CCCC2)c2ccccc2OC)cc1,i
CC(C)CCN1C(=O)c2ccc(C(=O)Nc3ccccc3[N+](=O)[O-])cc2C1=O,i
Cc1c(/C(O)=C2\C(=O)C(=O)N(Cc3cccnc3)C2c2ccc(F)cc2)cnn1-c1ccccc1 (stereo not drawn),i
Cc1ccc(C)c(OCC(=O)Nc2nc3ccc([N+](=O)[O-])cc3s2)c1C,i
COC(=O)Cc1cc(=O)oc2cc(OC)ccc12,i
Cc1ccccc1-n1c(CSc2ncccn2)nc2ccccc2c1=O,i
COc1ccc(CNCCN(C)C)cc1Br,i
Cc1ccc(S(=O)(=O)Nc2ccc(NC(=S)Nc3ccccc3C(F)(F)F)cc2)cc1,6%
COc1ccccc1NC(=O)c1c(NC(=O)c2cccnc2)sc(C)c1C,i
O=c1[nH]c(/C=C/c2ccc(Cl)cc2Cl)nc2ccccc12,2%
Cc1cccc(-c2noc(CSc3ccccc3)n2)c1,i
COc1cccc(NC(=O)c2ccccc2Oc2ccccc2)c1,27%
COC(=O)c1ccccc1NC(=O)c1cc2ccccc2o1,i
COc1ccc(C(=O)N2CCC(C(=O)Nc3cccc(C)c3)CC2)cc1OC,i
O=C1CC(c2cccs2)SC(N(c2ccccc2)c2ccccc2)=N1 (stereo not drawn),0%
CCc1ccc(OCC(=O)Nc2cccc(C(F)(F)F)c2)c(Br)c1,i
COC(=O)c1ccc(OCC(O)CN2CC(C)OC(C)C2)cc1 (stereo not drawn),4%
CC1CCN(CC(=O)Nc2nccs2)CC1,1%
Cc1cnn(CCCNC(=O)Nc2ccc(F)c(Cl)c2)c1,i
O=C(Nc1ccccc1Cc1ccccc1)c1cc(-c2cccnc2)nc2ccc(Cl)cc12,i
CC(C)C(=O)N1CCN(c2ccccc2NC(=O)c2ccco2)CC1,i
CCCn1c2ccccc2c2nnc(SCC(=O)Nc3cccc(C(C)=O)c3)nc21,i
CS(=O)(=O)N(Cc1ccccc1Cl)c1ccc(C(=O)Nc2cccc(C(F)(F)F)c2)cc1,i

The closing five records of the section above lead into the next.
canonical_smiles,Mtb growth
Cc1cnn(CCCNC(=O)Nc2ccc(F)c(Cl)c2)c1,i
O=C(Nc1ccccc1Cc1ccccc1)c1cc(-c2cccnc2)nc2ccc(Cl)cc12,i
CC(C)C(=O)N1CCN(c2ccccc2NC(=O)c2ccco2)CC1,i
CCCn1c2ccccc2c2nnc(SCC(=O)Nc3cccc(C(C)=O)c3)nc21,i
CS(=O)(=O)N(Cc1ccccc1Cl)c1ccc(C(=O)Nc2cccc(C(F)(F)F)c2)cc1,i
COc1ccc(CCNC(=O)c2ccc(N(C)S(C)(=O)=O)cc2)cc1,i
O=C(CCc1ccccc1)Oc1ccccc1[N+](=O)[O-],i
CSc1nc(C)cc(SCCOc2ccccc2)n1,27%
Cc1cc(Br)ccc1OCC(=O)NCc1ccc(Cl)cc1,1%
CCC(CC)C(=O)Nc1cccc(NC(C)=O)c1,i
Cc1cc(C)c(NS(=O)(=O)c2ccc(Cl)c(C(=O)O)c2)c(C)c1,i
CCc1ccc(OCC(=O)NCCOc2ccccc2)cc1,i
Cn1c2ccccc2c2nnc(SCc3ccc4nonc4c3)nc21,i
CCCc1cc(=O)n2[nH]c(-c3ccc(I)cc3)cc2n1,i
Cc1scc(C(=O)NN2CCN(C)CC2)c1-c1ccccc1,i
O=C(Nc1ccc2c(c1)OCO2)c1nc2nc(-c3ccccc3)cc(C(F)(F)F)n2n1,i
Cc1ccc(-c2cc3nc(C)c(Cl)c(C)n3n2)cc1,i
O=c1c2cc(Cl)ccc2sc2ccc([N+](=O)[O-])cc12,i
Cc1cc(NS(=O)(=O)c2cccs2)ccc1Br,3%
CCOc1ccccc1-c1c(C#N)c(N)nc2c1CCCCC2,5%
O=C(Nc1ccc(N2CCN(C(=O)c3ccccc3)CC2)cc1)c1ccc2c(c1)OCCO2,i
Cc1cc(C(C)(C)C)ccc1OCCOCCN1CCOCC1,i
Cc1ccc(OCCCC(=O)Nc2cc(Cl)cc(Cl)c2)cc1,0%
CC(=O)c1cccc(NC(=O)c2cccc(-c3cc4ccccc4oc3=O)c2)c1,i
CCn1ccnc1C(O)c1cccc(OC)c1 (stereo not drawn),i
O=C(CN1CCCCC1)Nc1c(Cl)cc(Cl)cc1Cl,i
Cc1cc2c(cc1C)NC1(C(=O)Nc3ccccc31)C1=C(CC(C)(C)CC1=O)N2 (stereo not drawn),i
CCc1cc(=O)oc2cc3occ(-c4ccccc4)c3cc12,i
CC(C)c1ccccc1NC(=O)CN(c1ccc(Cl)c(C(F)(F)F)c1)S(C)(=O)=O,3%
c1ccc(CCNCCOc2ccccc2)cc1,5%
S=C(NCCc1ccccc1)N1CCN(c2ccccc2Cl)CC1,5%
CC1=CC(c2ccc(Cl)cc2)n2ncnc2N1 (stereo not drawn),i
CCCNC(=O)c1ccc(CN(c2cc(Cl)ccc2C)S(=O)(=O)c2ccccc2)cc1,i
CCOc1ccc(C(=O)NC(=S)Nc2ccccc2C(=O)O)cc1[N+](=O)[O-],5%
CCN1CCN(CCOc2ccc(F)cc2)CC1,i
CCOc1ccccc1N(CC(=O)Nc1cccnc1)S(=O)(=O)c1ccc(SC)cc1,0%
NC(=O)c1c(NC(=O)COc2ccc(Cl)cc2)sc2c1CCCC2,i
CCn1nnnc1-c1ccc(OC)c(S(=O)(=O)Nc2cc(C(F)(F)F)ccc2Cl)c1,i
COc1ccc(NC(=O)Cn2c(C(F)(F)F)nc3ccccc32)cc1,i
COC(=O)CN(c1ccc2c(c1)OCCO2)S(=O)(=O)c1ccccc1,i
Cc1cc(C)c2c3c(sc2n1)C1(CCOC1C)C(C#N)=C(N)O3 (stereo not drawn),3%
CCc1cc(Br)ccc1NC(=S)NCc1ccco1,i
Cc1ccc2cccc(OCCOCCOc3ccccc3Br)c2n1,50%
O=C(NCC1CCCCC1)c1ccncc1,i
CCOCCC(=O)Nc1ccc(S(=O)(=O)N2CCC(C)CC2)cc1,i
Fc1ccc(-n2c(C34CC5CC(CC(C5)C3)C4)n[nH]c2=S)cc1,i
COc1ccc(C(=O)O/N=C(\N)c2cccnc2)c(OC)c1,2%
O=C(O)CCSC1CC(=O)N(c2ccc(F)cc2)C1=O (stereo not drawn),i
Cc1c(N2C(=O)c3ccccc3C2(O)c2ccccc2)c(=O)n(-c2ccccc2)n1C (stereo not drawn),i
O=C(CSc1ccc(Br)cc1)Nc1cc(Cl)ccc1Cl,3%
O=C(CSc1nc2ccccc2[nH]1)Nc1ccc(Oc2ccccc2)cc1,13%
Cc1cc(C)nc(/N=C(/N)N2CCCCC2)n1,i
O=C(COC(=O)c1ccc2c(c1)OCCO2)c1ccc(Cl)cc1,i
CC(C)OC(=O)c1ccc(Cn2nnc3ccccc3c2=O)cc1,i
Fc1ccccc1COc1ccc(Cl)cc1CNC1CCCC1,42%
Cc1ccc(OCCn2ncc3ccccc3c2=O)c(C)c1,i
CC12CCC(C(=O)NCCN3CCCCC3)(CC1=O)C2(C)C (stereo not drawn),i
O=C(Nc1ccc2c(c1)OCCO2)c1cc(S(=O)(=O)N2CCCCC2)c(Cl)cc1Cl,i
COc1ccc(C)cc1NC(=O)COc1ccccc1[N+](=O)[O-],i
Cc1ccc(C(=O)c2ccco2)cc1C,i
Cc1cc(OCCCCN2CCN(C)CC2)cc(C(C)C)c1,i
CCc1ccccc1OCC(=O)Nc1ccc(I)cc1,i
Cc1ccc(Cl)cc1NC(=O)COc1ccc(S(=O)(=O)NC2CCCCC2)cc1,i
CCC(C)c1ccc(NC(=S)NCc2ccccn2)cc1 (stereo not drawn),i
CCc1cccc(C)c1NC(=O)C(C)(C)Oc1ccc(Cl)cc1,3%

Continued.
canonical_smiles,Mtb growth
N#Cc1nc2c(-c3nc4ccccc4s3)c(N)n(-c3ccc(Cl)cc3)c2nc1C#N,i
C=CCn1c(SCC(=O)Nc2nsc(-c3ccccc3)n2)nc2sc3c(c2c1=O)CCCC3,i
CCc1ccc(OC(=O)c2ccc(F)cc2)cc1,i
C=CCn1c(SC(CCO)C(=O)NCc2ccco2)nc2sc3c(c2c1=O)CCC3 (stereo not drawn),i
Clc1ccccc1CN1CCC(N2CCCC2)CC1,1%
CCOc1ccc(NCc2ccc(Br)cc2)cc1,i
Cc1[nH]c2ccccc2c1C1(O)C(=O)Nc2ccc(Cl)cc21 (stereo not drawn),0%
O=C(c1ccc(Cl)c(Cl)c1)N1CCN(c2ccc([N+](=O)[O-])c(NCc3ccccc3)c2)CC1,i
COc1ccc(C(=O)Nc2ccc(NC(=O)Cc3ccccc3)cc2)cc1Br,i
COc1cccc(-c2cc(C(F)(F)F)n3nc(C(=O)N4CCC5(CC4)OCCO5)cc3n2)c1,i
CCC(=O)Nc1ccc(-c2nnc3c4ccccc4c(C)nn23)cc1,i
O=C(CCc1ccccc1)NC(c1ccc2c(c1)OCO2)c1ccc2cccnc2c1O (stereo not drawn),i
Cc1cc(C)cc(OCc2ccc(C(=O)Nc3ccc(C)cc3C)o2)c1,i
O=C(O)c1cccc(NC(=O)c2cn(-c3ccccc3)nc2-c2ccc(Cl)s2)c1,2%
CC(C)COc1ccc(S(=O)(=O)n2cc(F)c(=O)[nH]c2=O)cc1,3%
CCN(Cc1ccccc1)C(=O)c1ccc(Cl)cc1Cl,8%
CN1CCN(CCCN2c3ccccc3Sc3ccc(C(F)(F)F)cc32)CC1,14%
O=C1CCCC2=C1C(c1ccc(O)c(Br)c1)C1=C(CCCC1=O)N2c1ccccc1,i
